Biofilm kill mix = mixtures killing C. albicans biofilm; C. albicans biofilm persisters + clotrimazole, fluorescence viability; primary screen in compound mixtures of four per well; inhibition, % at 7.6 µM; hit rate 0.02% among 120,000;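 active means inhibition above 30.3% in the primary screen of four-compound pools, then above 30% when the compound was retested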;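 further: compounds exposed to preformed 24 h biofilms for 48 h; the number belongs to the whole pool; some results filed as inactive read as strong as hits; inactives centre near 12; 0% = biofilm with clotrimazole alone and 100% = kill control; retested singly at about 60 µM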
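System: C. albicans CAF4-2 wild-type biofilms; Medium: RPMI/MOPS medium, pH 7.0; Reagent: Clotrimazole, 50 µg/mL; Times: biofilm formation 24 h, compound exposure 48 h, 37 °C; Detection: 2-h Alamar Blue fluorescence, 535/590 nm excitation/emission; Evaluation: percent inhibition of biofilm viability.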
* hit, by the source's call.

SMILES	Biofilm kill mix
N#CCCN(C(=O)COc1ccc(F)cc1Br)c1ccccc1F	13
O=C(Nc1cccnc1)c1ccc(Cl)c(S(=O)(=O)N2CCc3ccccc32)c1	3
O=C(Nc1cccc(S(=O)(=O)N2CCOCC2)c1)c1cc2ccccc2o1	15
CC(C)c1ccc(-n2cnn(-c3ncccc3[N+](=O)[O-])c2=O)cc1	2
O=C1/C(=C/c2cccnc2)CCc2c1[nH]c1ccccc21	7
COc1ccc(NC(=O)c2c[nH]c(=O)n(-c3ccc(C)c(C)c3)c2=O)cc1OC	19
C/C(=N\NC(=O)CCn1nnc2ccccc21)c1cccs1	6
Cc1ccc(/C=C2/SC(=S)N(CCCC(=O)Nc3ccc(O)cc3)C2=O)cc1	2
COc1ccc(NC(=O)N(Cc2cc3ccc(OC)cc3[nH]c2=O)CC2CCCO2)cc1 (stereo unspecified)	9
Cc1ccccc1-n1c(C)nnc1SCC(=O)N(C)C1CCS(=O)(=O)C1 (stereo unspecified)	3
CCc1ccc(NC(=O)CC2C(=O)N(c3ccc(C)cc3)C(=O)N2CCc2ccncc2)cc1 (stereo unspecified)	24
CN(C)/C=C(\C#N)C(=O)N/N=C/c1ccccc1	15
O=C(Nc1ccc(S(=O)(=O)Nc2ncccn2)cc1)c1ccc2ncsc2c1	16
O=C(NC(=S)NNS(=O)(=O)c1ccccc1)c1ccc([N+](=O)[O-])cc1	12
COC(=O)/C=c1/s/c(=C(/C#N)C(=O)N2CCCCC2)n(-c2ccccc2)c1=O	18
Cc1cccc(OCCC(=O)Nc2ccc(F)c(F)c2)c1	-1
COc1ccc2c(c1OC)C(=O)N1c3ccccc3N=C(c3ccc([N+](=O)[O-])cc3)CC21 (stereo unspecified)	10
COc1cc(C2NC(=O)NC(C)=C2C(=O)OCC2CCCO2)cc(OC)c1OC (stereo unspecified)	24
COCCNC(C(=O)Nc1ccc([N+](=O)[O-])cc1Br)c1ccccc1 (stereo unspecified)	12
CCOc1nc(OCC)c2cnn(C)c2n1	2
Cc1ccc(/C(O)=C2\C(=O)C(=O)N(Cc3cccnc3)C2c2ccccc2[N+](=O)[O-])cc1 (stereo unspecified)	9
O=C(COC(=O)/C=C/c1nc2ccccc2s1)Nc1ccccc1Oc1ccccc1	16
O=C(COc1ccc(Cl)cc1)NCc1nnc(SCC(=O)Nc2ccc(F)cc2F)o1	10
COc1cccc(CC2(CO)CCCN(S(=O)(=O)N(C)C)C2)c1 (stereo unspecified)	5
COc1ccc(-c2[nH]c3ccccc3c2SCCN)cc1	20
CN(C)CCCNC(=O)c1cc(C(=O)c2ccc(F)cc2)c[nH]1	11
CC(/C=C1\SC(=S)N(NC(=O)c2ccc(O)cc2)C1=O)=C\c1ccccc1	12
CCN(c1ccccc1)S(=O)(=O)c1ccc(C(=O)Nc2nnc(-c3ccco3)o2)cc1	22
COc1ccc(-c2csc(NC(=S)NC(=O)/C=C/c3ccccc3)n2)cc1Br	20
CCc1nnc(NC(=O)CCC(=O)NC2CCCc3ccccc32)s1 (stereo unspecified)	9
COc1cc(CN2CCNC(=O)C2CC(=O)N(Cc2nccn2C)C(C)C)cc(OC)c1 (stereo unspecified)	32
COc1ccc(NC(C)=O)cc1S(=O)(=O)Nc1ccc(C(=O)N2CCCC2)cc1	2
CN1CCN(CCC2Oc3cc([N+](=O)[O-])ccc3NC2=O)CC1 (stereo unspecified)	-8
CCOc1ccccc1NC(=O)CN1C(=O)C(=O)N(Cc2ccco2)C1=O	-2
CCOC(=O)C1(Cc2cccc(F)c2)CCN(C(=O)Cc2cccnc2)CC1	4
Cc1ccc(S(=O)(=O)CCC(=O)OCC(=O)NC(N)=O)cc1	15
CC(C)(C)OC(=O)N1CCC(CNC(=O)c2ccc(F)cc2)CC1	28
Cc1n[nH]c(=S)n(NC(=O)/C=C/C(=O)Nn2c(=S)[nH]nc(C)c2=O)c1=O	7
CCCCn1[nH]c(-c2ccccc2)cc1=O	4
Nc1cc2nc[nH]c2cc1N	8
Cc1ccc(C(=O)N2CC(=O)Nc3ccc(F)cc3C2c2ccccc2)cc1[N+](=O)[O-] (stereo unspecified)	10
COc1ccc(CC(=O)Nc2cc3oc4ccccc4c3cc2OC)cc1	6
CCOc1ccc(-c2nnc(-c3ccncc3)o2)cc1OCC	10
COc1cccc(-c2csc(NNC(=O)c3cccs3)n2)c1	11
COc1cc(C(F)(F)F)c(C(=O)N(C)Cc2cc(Cl)cc(Cl)c2)cn1	17

An excerpt of these results, bar-delimited:
Molecule | Biofilm kill mix
Cc1ccc(S(=O)(=O)CCC(=O)OCC(=O)NC(N)=O)cc1 | 15
CCOc1ccc(-c2nnc(-c3ccncc3)o2)cc1OCC | 10
CCCCn1[nH]c(-c2ccccc2)cc1=O | 4

Given with each value named: entries from further up
Structure: COc1ccc(NC(C)=O)cc1S(=O)(=O)Nc1ccc(C(=O)N2CCCC2)cc1
  Biofilm kill mix: 2
Structure: CN1CCN(CCC2Oc3cc([N+](=O)[O-])ccc3NC2=O)CC1 (stereo unspecified)
  Biofilm kill mix: -8
Structure: CCOc1ccccc1NC(=O)CN1C(=O)C(=O)N(Cc2ccco2)C1=O
  Biofilm kill mix: -2
Structure: CCOC(=O)C1(Cc2cccc(F)c2)CCN(C(=O)Cc2cccnc2)CC1
  Biofilm kill mix: 4

Further entries
SMILES	Biofilm kill mix
Fc1ccc(NC(=S)NCCc2ccc(Cl)cc2)cc1	17
CCOc1ccc(-n2c(=O)c3sccc3n(Cc3ccc(C)cc3)c2=O)cc1	8
COc1cc(C(=O)Nc2ccc(Cl)c(C(F)(F)F)c2)cc(OC)c1OC	6
O=c1c2sc(-c3ccccc3)cc2nc2n1CCCCC2	13
Cc1nc(N2CCOCC2)c2c(C)c(C(=O)Nc3ccccc3Cl)sc2n1	14
COc1ccc(NC(=S)NNC(=O)c2ccc(S(=O)(=O)N3CCOCC3)cc2)cc1	12
O=C1/C(=C/c2ccccn2)SC(=S)N1c1cccc(O)c1	15
COc1ccc2c(C)nc(Nc3nc(-c4ccccc4)cc(=O)[nH]3)nc2c1	11
COc1ccc(-c2noc(-c3cccs3)n2)cc1OC	4
Nc1c(-c2ccccc2)c(CSc2nc3ccccc3[nH]2)nn1-c1ccc(Cl)cc1	4
Cc1ccc(SCc2cc(=O)n3[nH]cnc3n2)cc1	14
CCOc1ccc(NS(=O)(=O)c2ccc3[nH]c(=O)cc(C(=O)O)c3c2)cc1	4
Cn1c(-c2ccccc2)c(C(=O)CC#N)c2ccccc21	12
CC(C)CCNC(=O)C(=O)NCc1ccccc1	3
Cc1ccc(-n2[nH]c(C)c(C=NCc3ccncc3)c2=O)cc1	24
O=C(O)c1nn(-c2ccccc2C(F)(F)F)cc1O	12
Clc1ccc(-c2c[n+](Cc3ccc(Cl)cc3Cl)c3n2CCCCC3)cc1	12
C/C(=N/NC(=O)CSc1nc2ccccc2n1C)c1ccncc1	-1
c1ccc(C2[C@H]3CN(CC4CCCCC4)[C@H](c4ccccc4)C34CC2(c2ccccc2)C4)cc1 (stereo partly specified)	11
C=CCn1c(SCC(N)=O)nc2scc(-c3ccc(C)o3)c2c1=O	10
C=C(C)c1cccc(C(C)(C)NC(=O)N2CCN(c3ccccc3)CC2)c1	14
COc1ccc(CN(CCC#N)CCC2(c3ccccc3)CC(C)N(C)CC2C)cc1OC (stereo unspecified)	6
C/C(=N\NC(=O)C(=O)Nc1c(C)n(C)n(-c2ccccc2)c1=O)c1ccc(Cl)s1	3
COc1ccc2cc(C(=O)Nc3ccc(S(N)(=O)=O)cc3)sc(=O)c2c1OC	20
Cc1nc(/C(N)=N/OC(=O)Cc2ccccc2)no1	3
COc1ccc(OCCNS(=O)(=O)Cc2ccccc2)cc1	14
Cc1ccc(Cn2cccc2/C=N/NC(=S)Nc2ccc(C)cc2)cc1	16
O=C(CNC(=O)c1ccc2c(c1)OCCO2)N/N=C/c1cccc(Br)c1	29
O=C(c1ccc(Br)cc1)c1sc(N2CCOCC2)nc1-c1ccccc1	12
O=C(NCCCNCCCNC(=O)c1ccc(/C=N/O)nc1)c1ccc(/C=N/O)nc1	26
Cc1ccc(N=C2NC(=O)/C(=C\c3ccc(C)s3)S2)cc1	-3
Cc1c(C(=O)O)sc2nc(SCC(=O)Nc3ccc(S(=O)(=O)NC(C)(C)C)cc3)[nH]c(=O)c12	24
COC(=O)c1cn(CC(=O)NC2CCCCCC2)c2ccccc12	-5
CC(C)(C)c1ccc(OCc2ccc(C(=O)N/N=C3\CC4CC=CC34)cc2)cc1 (stereo unspecified)	16
Nc1nc(-c2ccccc2)c(C(=O)Nc2ccccc2)s1	15
Cc1ccc(-n2[nH]c(C)c(C=Nc3ccc4[nH]c(=O)[nH]c4c3)c2=O)cc1	14
Cn1cnc([N+](=O)[O-])c1N=C(N)N	17
CC(C)CCNC1=CC(=O)CC(c2ccccc2)C1 (stereo unspecified)	7
CC1=NNC(=O)C1CCC(=O)N/N=C/c1c(Cl)cccc1Cl (stereo unspecified)	13
COCCNC(=O)c1ccc(-c2csc(C)n2)cc1	2
Cc1ccc(NC(=O)CN2C(=O)C3CC=CCC3C2=O)cc1S(=O)(=O)N1CCOCC1 (stereo unspecified)	0
CCC/C=N/NC(=O)c1cccc(Br)c1	11
CC(OC(=O)c1ccccc1Nc1ccc(SC(F)F)cc1)C(N)=O (stereo unspecified)	8
Cc1cccc(C)c1NC(=O)N1CCCCCCC1	4
CCN(CCn1cccn1)C(=O)CC1C(=O)NCCN1Cc1ccc(OC)c(OC)c1 (stereo unspecified)	11

Four of the compounds above, in markdown.
| Structure | Biofilm kill mix |
| --- | --- |
| Cn1c(-c2ccccc2)c(C(=O)CC#N)c2ccccc21 | 12 |
| CC(C)CCNC(=O)C(=O)NCc1ccccc1 | 3 |
| Cc1ccc(-n2[nH]c(C)c(C=NCc3ccncc3)c2=O)cc1 | 24 |
| O=C(O)c1nn(-c2ccccc2C(F)(F)F)cc1O | 12 |

(list continues)
SMILES	Biofilm kill mix
O=C(Oc1ccc(NC2=C(Cl)C(=O)c3ccccc3C2=O)cc1)c1ccc([N+](=O)[O-])cc1	16
COc1ccc(OC)c(/C=C/C(=O)OCC(=O)Nc2ccc3c(c2)OCCO3)c1	17
COc1ccc(CCNC(=O)C2CCCN2S(=O)(=O)c2ccc(F)cc2)cc1OC (stereo unspecified)	24
CCC(C(=O)OCC(=O)Nc1ccc(C(N)=O)cc1)c1ccccc1 (stereo unspecified)	-4
CCN(CC(=O)NC(C)(C)C)Cc1nc2c(Br)cc(Br)cc2c(=O)[nH]1	17
O=C(CCC(=O)c1ccccc1)NCCc1c[nH]c2ccccc12	20
CCCCCc1ccc(OCCCC[n+]2ccc(C)cc2)c(CCCCC)c1	29
c1ccc2c(c1)NCCS2	29
CCOC(=O)C1(Cc2ccccc2)CCN(Cc2cn[nH]c2-c2ccccc2)CC1	23
O=C1CS/C(=N/N=C2C3CC4CC(C3)CC2C4)N1	6
O=C(N/N=C/c1cn(-c2cccs2)nc1-c1ccccc1)c1ccccc1Cl	11
O=C(Nc1ccc2c(c1)OCO2)C1CC(=O)N(CCc2ccccc2)C1 (stereo unspecified)	13
COc1cc(C(=S)N2CCN(c3cccc(Cl)c3)CC2)ccc1O	18
CC1(C)CC(=O)C2=C(C1)OC(N)=C(C#N)C2c1cc2c(cc1[N+](=O)[O-])OCO2 (stereo unspecified)	16
Cc1nn(C)cc1C(C(=O)NC1CCCCC1)N(C(=O)c1cnccn1)c1ccc(Oc2ccccc2)cc1 (stereo unspecified)	14
Cc1cc(O)c(C(=O)/C=C/c2cccc([N+](=O)[O-])c2)c(=O)o1	25
COc1ccc(-c2cc(C(F)(F)F)nc(SCC(=O)Nc3ccc4c(c3)OCO4)n2)cc1	12
Cc1ccc(CN2CCN(/N=C/c3ccc(C(=O)O)cc3)CC2)c(C)c1	13
C/C(N)=C(/C#N)C(=O)COC(=O)C1CCN(C(=O)c2ccc(Cl)cc2)CC1	11
CCOc1ccc(NC(=O)c2ccccn2)cc1	-2
Clc1ccc(Cn2nnc(-c3ccccc3)n2)cc1	7
Nn1c(COc2cccc(Cl)c2)nc2ccccc2c1=O	15
CCc1nc(C)cn1S(=O)(=O)c1cc(F)ccc1OC	13
CCOCCCNC(=O)C(NC(=O)Cc1cccs1)c1ccccc1 (stereo unspecified)	-6
NS(=O)(=O)c1ccc(NC(=O)COC(=O)c2cc3ccccc3oc2=O)cc1	22
COc1cccc(/C=N/NC(=O)C(=O)NCc2cccnc2)c1O	11
O=C(Nc1ccc(NC(=S)NC(=O)c2ccccc2F)cc1)c1cccs1	-1
O=S(=O)(c1ccc(NC(=S)NCCC(c2ccccc2)c2ccccc2)cc1)N1CCOCC1	0
COc1cc(OC)cc(C(=O)OC/C(O)=C(\C#N)c2nc3ccccc3[nH]2)c1	32
CCOC(=O)c1sc(=S)n(C)c1NC(=O)c1ccccc1	19
Nc1cc(=O)[nH]c(SCC(=O)Nc2ncc(C(F)(F)F)cc2Cl)n1	11
COc1ccccc1C1SCCN1C(=O)c1ccc([N+](=O)[O-])cc1 (stereo unspecified)	13
Cc1cc(C)c2c(=O)n(CC(=O)Nc3cccc(F)c3)sc2n1	24
COc1cccc(/C=N/NC(=O)CCNc2n[nH]c(=O)[nH]c2=O)c1OC	-3
Cc1cccc(OC(C)C(=O)NCc2ccc(S(N)(=O)=O)cc2)c1 (stereo unspecified)	8
O=C(NCc1ccccn1)C(=O)Nc1nc(C23CC4CC(CC(C4)C2)C3)cs1	16
COc1ccc(S(=O)(=O)N2CCNCC2)cc1OC	13
CCOc1ccc(N=C(NN)c2ccc3ccccc3n2)cc1	12
CCNC(=S)N1CCc2ccccc2C1	1
Cc1ccc(NC(=O)CCCN2C(=O)c3cccc4cccc(c34)C2=O)cc1	23
CC(=O)Nc1ccccc1C(=O)C(=O)Nc1ccc(C)c(F)c1	9
O=C(CO/N=C/c1ccc(OC(F)F)cc1)NC1CCCC1	15

An excerpt; rates above refer to the full screens.
